Screening results as filed in PubChem BioAssay.
Vaccinia mCherry: qHTS for Stage-Specific Inhibitors of Vaccinia Orthopoxvirus: mCherry Reporter Primary qHTS | Potency, µM (titrated, usually from 36.5 µM), for inactives: at the top dose activity change, negative = inhibition, actives largely listed as inhibitors | Vaccinia virus mCherry reporter infection, fluorescence; about a quarter of the inactives have no number | 0.63% of 310,000 active; active = well fitted inhibition curve with a large enough effect; inconclusive = small, poorly fitted or top-dose-only effect; inactive = no such curve, though single readings can be large or run the other way; tested in A549 cells; further: nearly all actives have a fitted effect of over 35% in size; inactives centre near -10
VACV Venus inh: qHTS for Stage-Specific Inhibitors of Vaccinia Orthopoxvirus: Venus Reporter Primary qHTS; 0.46% of 330,000 active; Vaccinia virus Venus reporter expression, fluorescence; Potency, µM (top dose mostly 36.5 µM), for the others: at the top dose activity change, negative = inhibition, most hits filed as inhibitors; active means well fitted inhibition curve with a large enough effect; inconclusive means small, poorly fitted or top-dose-only effect; inactive means no such curve, though single readings can be large or run the other way; tested in A549 cells; further: nearly all actives have a fitted effect of over 30% in size; inactives centre near -10
The depositor's hits bear a star; i = inactive; ? = inconclusive; nt = not tested or not shown; [ ] = another dose, or the depositor's remark. On the % scale 0 is the no-effect control and ±100 the full control effect; potency means the concentration at half of the fitted maximal effect. Rows were taken by chance; overall some 0.82% were active at least once.

SMILES | Vaccinia mCherry | VACV Venus inh
CCC1C(=O)NCCN1C(=O)c1ccc2nc(Cc3cccc(Cl)c3)oc2c1 (stereo not given) | -9% | -8%
Cc1ccc(NC(=O)Nc2ccc(F)cc2)nc1 | ? | ?
CCS(=O)(=O)N1CC(=O)N(c2cccc(Cl)c2C)C(C)(C(=O)NC2CCCCC2)C1 (stereo not given) | -9% | -8%
CC(C)n1cnc2c(NCc3ccccc3)cc(Cc3ccc(F)cc3)cc21 | -12% | ?
COc1ccc(OCC(=O)Nc2ccc(N3CCOCC3)c(Cl)c2)cc1 | -5% | 0%
O=C(CCCSc1nc2ccccc2[nH]1)NCc1ccccc1 | -7% | -11%
O=S(=O)(Nc1nc2ccccc2nc1Cl)c1cccc(C(F)(F)F)c1 | -14% | -11%
Cc1nc(-c2ccccc2)sc1C(=O)Nc1ccccc1F | -10% | 0%
Cc1cc(C(=O)N2CCCC(N3CCN(c4ccc(F)cc4)CC3)C2)c(C)o1 (stereo not given) | i[7.34 µM] | -1%[7.34 µM]
COCCn1c(=O)[nH]c(=O)c2c1nc(-c1cc(Br)c3c(c1)OCO3)n2Cc1ccccc1 | -7% | -1%
O=C(O)CSCCc1ccccn1 | -14% | -13%
COc1ccc(C(CNC(=O)C(C)c2ccc3cc(OC)ccc3c2)N(C)C)cc1 (stereo not given) | -21% | -9%
CC(=O)Nc1cccc(Nc2nc3ccccc3n3c(C)nnc23)c1 | -16% | -5%
Cc1ccc(S(=O)(=O)[N-]c2nc3ccccc3nc2-n2cc[n+](CCC(C)C)c2)cc1 | -21% | -6%
Cc1nnsc1SCCNC(=O)c1ccc(F)cc1 | -11% | 0%
O=C(COc1ccc(F)cc1)Nc1nnc(S(=O)(=O)N2CCc3ccccc32)s1 | -11% | -10%
CCOc1ccccc1N1CCN(C(=O)c2cc(-c3cc(OC)ccc3OC)nc3ccccc23)CC1 | -11% | -4%
O=C1NC[C@H](c2ccccc2)N(CCCCC2CCCCC2)C1=O | 2.2µM* | ?
NS(=O)(=O)c1ccc(NN=C2CCN(Cc3ccccc3)CC2)c([N+](=O)[O-])c1 | i | -1%
Cc1cccn2c(CN(C)CC3Cc4ccccc4O3)c(C(=O)N3CCCCC3)nc12 (stereo not given) | i | -15%
CC(C)(C)c1ccc(C(=O)NCC(=O)OCc2ccc([N+](=O)[O-])cc2)cc1 | 0% | -12%
COc1cc(C2CC(=O)Nc3c2c(C)nn3-c2nncc(-c3ccc(C)cc3)n2)cc(OC)c1OC (stereo not given) | ? | ?
Cc1cccn2c(=O)c3cc(C#N)c(=N)n(CCCN4CCOCC4)c3nc12 | i | -3%
O=C(c1cccnc1)N1CCN(Cc2ccccc2Br)CC1 | 1% | 5%
CCCCN1CCNC[C@H]1Cc1ccc(O)cc1 | i | -8%
CC(C)c1nnc(NC(=O)CCC(=O)N2CCC(Cc3ccccc3)CC2)s1 | -14% | -28%
CCC(=O)c1ccc(N2CCN(C(=O)c3ccc(Br)cc3)CC2)c(F)c1 | -15% | -8%
COc1ccc(CNC(=O)C2CCN(c3nc(OC)nc(OC)n3)CC2)cc1 | -27% | -12%
CC(C)(C)C(=O)Nc1nc2ccc(S(C)(=O)=O)cc2s1 | -2% | -24%
O=C(Cn1cnc2c(nnn2-c2ccc(F)cc2)c1=O)NCc1ccco1 | i | -9%
Cc1ccc(Nc2nc(Cl)nc(N(C)C#N)n2)cc1 | -9%[1.46 µM] | ?
O=C(OCC(=O)N1CCC(Cc2ccccc2)CC1)c1ccc(CO)cc1 | -11% | -5%
COc1cccc(NC(=O)CSc2nnc(Cn3cnc([N+](=O)[O-])n3)n2C)c1 | -1% | -5%
COCc1nnc(NC(=O)c2cccc(NC(=O)c3ccccc3)c2)s1 | -3% | -17%
CN(C)CCCN(C(=O)c1ccc(S(=O)(=O)N2CCCCCC2)cc1)c1nc2cc3c(cc2s1)OCCO3 | -29% | ?
CC(C)Nc1nc(Nc2ccccc2Cl)c2sccc2n1 | -15% | -23%
CO/N=C/c1ccc(Oc2ccc([N+](=O)[O-])cc2[N+](=O)[O-])c(OC)c1 | i | -22%
CC(c1cccnc1)N(C(=O)Nc1ccccc1)C1CCCCC1 (stereo not given) | ? | -8%
COc1ccccc1OCC(=O)N1CCCC(Nc2cccc(F)c2)C1 (stereo not given) | -7% | -5%
OC(c1ccc(Cl)c(Cl)c1)c1ncc(-c2ccc(C(F)(F)F)cc2)[nH]1 (stereo not given) | 6% | ?

As entered above.
CN(C)CCCN(C(=O)c1ccc(S(=O)(=O)N2CCCCCC2)cc1)c1nc2cc3c(cc2s1)OCCO3 – Vaccinia mCherry: -29%
O=C(c1cccnc1)N1CCN(Cc2ccccc2Br)CC1 – VACV Venus inh: 5%
CCCCN1CCNC[C@H]1Cc1ccc(O)cc1 – VACV Venus inh: -8%
CCC(=O)c1ccc(N2CCN(C(=O)c3ccc(Br)cc3)CC2)c(F)c1 – VACV Venus inh: -8%
Cc1ccc(Nc2nc(Cl)nc(N(C)C#N)n2)cc1 – Vaccinia mCherry: -9%[1.46 µM]

(continued)
SMILES | Vaccinia mCherry | VACV Venus inh
Cc1cccc(NC(=O)N2CCN(Cc3ccc(Cl)cc3)CC2)c1 | -10% | -27%
O=C(Nc1nc2c(F)c(F)c(F)cc2s1)c1ccco1 | -7% | -3%
NC(=O)c1nsc(C(=O)N(CC(=O)NC2CCCC2)c2cccc(C(F)(F)F)c2)c1N | i | -8%
CCN(CC)CCNC(=O)c1cc2c(=O)[nH]c3ccc(C)cc3c2s1 | -20% | -18%
Cc1ccc(C(=O)O/N=C(\N)c2nonc2N)cc1 | -10% | -9%
O=C(CCSc1ccccn1)Nc1ccc(Br)cc1 | -17% | -28%
COc1c(Cl)ccc(Cl)c1C(=O)NC(=S)N1CCOCC1 | i | -9%
CC(=NCCN1CCNCC1)C1=C(O)CC(C)(C)CC1=O | i | -8%
CCN(CC)c1nc(Nc2ccc(Cl)cc2)nc(OCC#N)n1 | nt | ?
COc1ccc(S(=O)(=O)c2cnc(SCC(=O)Nc3cc(F)ccc3C)[nH]c2=O)cc1Cl | -6% | -4%
COC(=O)c1sc2nc(SCc3cccc(Cl)c3)n(N)c(=O)c2c1C | -6% | -2%
Cc1ccc(Nc2nc(NCC3CCCO3)nc(N)c2[N+](=O)[O-])cc1 (stereo not given) | -4% | -10%
S=C(NCCc1ccccc1)N1CCC2CC1c1cc(-c3ccc4c(c3)OCO4)ccc12 (stereo not given) | 0% | -20%
CC1CCc2sc(C(=O)NN)cc2C1 (stereo not given) | -4% | -11%
CCn1cc(C(=O)O)c(=O)c2cc(F)c(N3CCN(C(=S)NC(=O)c4cccc(C)c4)CC3)cc21 | -14% | -11%
Cc1cc2oc(C(=O)Nc3c(C)n(C)n(-c4ccccc4)c3=O)c(C)c2cc1Cl | -2% | -23%
Cc1c(NC(=O)c2c([N+](=O)[O-])cnn2C)c(=O)n(-c2ccccc2)n1C | i | -1%
CCCCCCc1cc2cc(-c3nnc(-c4ccc(C)cc4)o3)c(=O)oc2cc1O | ? | ?
O=C(COC(=O)c1c2c(nc3ccccc13)CCCC2)Nc1ccc2c(c1)OCO2 | nt | -20%
Cc1ccccc1-n1c([C@@H]2C[C@H]2c2ccccc2)n[nH]c1=S | -5% | -4%
Cc1ccc(/C=C/c2ccc(N(C)C)cc2)[n+](C)c1 | -16% | 152%[activator]
CC(=O)Nc1ccc(N=Nc2ccc(O)cc2)cc1 | ? | -18%
CC(C)CCn1c(SC(C)C#N)nc2ccccc2c1=O (stereo not given) | 4% | -10%
Cc1nc(SCC(=O)NC2CC2)c2c(C)c(C)sc2n1 | -12% | -17%
CCCCCCCOc1ccc(CC(=O)NO)cc1 | -22% | -19%
CC(C)OC(=O)CC1C(=O)NCCN1C(=S)NC(=O)c1ccc(F)cc1 (stereo not given) | i | -1%
CNC(=O)Nc1cccc(-c2cc(-c3c(Cl)cccc3Cl)no2)c1 | -8% | -15%
COc1ccccc1N1CCN(c2ccc(=O)n(CC(=O)Nc3cc(F)ccc3C)n2)CC1 | -12% | -3%
Cc1ccc(C(=O)OCC(=O)Nc2ccc(Cl)cn2)cc1S(=O)(=O)N1CCOCC1 | i | -14%
Cc1ccccc1-c1nc(CS(=O)(=O)CC(=O)NCCN2CCOCC2)c(C)o1 | i | -11%
COC(=O)c1cccc(NC(=O)c2ccc3c(c2)C(=O)N(C(C)(C)C)C3=O)c1 | -9% | -22%
CN(C(=O)c1cc(Cl)c2c(c1)OCCO2)c1c(N)n(Cc2ccccc2)c(=O)[nH]c1=O | i | -3%
CC(C)C[C@]1(c2ccccc2)ON(c2ccccc2C(F)(F)F)C1=O | -9% | ?
OCCNCCSc1nc(C2CCCCC2)n(-c2ccccc2Cl)n1 | i | -2%
COc1ccccc1NC(=S)c1ccccc1 | i | -10%
CCn1ccnc1CN(C)Cc1c(C(=O)N2C[C@@H](C)O[C@@H](C)C2)nc2ccc(Cl)cn12 | i | -13%
Cc1cc(C)n(CC(=O)NNC(=O)CCCOc2ccc(Cl)cc2C)n1 | -23% | -21%
Cc1cc2oc(=O)cc(Cn3ccnc3)c2cc1Cl | 3% | 0%
O=C(c1cc2ccccc2o1)n1nnc2ccccc21 | -9% | -3%
O=C(CN1CCN(S(=O)(=O)c2ccccc2)CC1)Nc1ccc(N2CCOCC2)cc1 | -5% | 1%
Cc1occc1C(=O)O/N=C(\N)c1ccccc1 | -9% | -6%
COc1ccc2c(c1)NP(=S)(Oc1ccccc1)N2 (stereo not given) | -17% | -7%
CSc1cccc(NC(=S)N(CCN(C)C)C(C)c2ccccn2)c1 (stereo not given) | -27% | ?
CCn1c(C)cc(C)c(C#N)c1=O | -24% | -15%
O=C(Nc1ccccc1Br)C1CCCN(S(=O)(=O)c2cccc3nsnc23)C1 (stereo not given) | -21% | -7%
COc1ccc(S(=O)(=O)c2c(SC)nn(Cc3ccccc3C)c2NC(C)=O)cc1 | -15% | -1%
O=c1nc(-c2ccccc2)n(-c2ccccc2)[nH]1 | -8% | -10%
COCCNC(=O)CSc1nnc(-c2ccc(C)cc2)c(-c2ccc(C)cc2)n1 | -19% | -14%
CCN(CC(=O)Nc1ccc(NC(C)=O)cc1)C(=O)C1COc2ccccc2O1 (stereo not given) | i | -19%
COc1ccccc1/C=C/C(=O)NC(=S)N1CCOCC1 | -1% | -7%
COC(=O)c1sccc1NC(=S)Nc1cc(OC)ccc1OC | -19% | 0%
CCCCOc1ccc(C2=NC(c3cccs3)=Nc3ccc(CC)cc3N2)cc1 | -2% | -4%
CCn1c2ccc(C)cc2c2n[nH]c(=S)nc21 | -3% | -19%
O=C(OCC(=O)N1CCN(c2ccccc2)CC1)c1ccc(Cl)nc1 | i | -6%
COc1cc(OC)cc(-c2nnc(SCC(=O)Nc3cccc(C(=O)O)c3)s2)c1 | -4% | -3%
O=C1CN(S(=O)(=O)c2cc(C(F)(F)F)ccc2Cl)CCN1 | i | -13%
CCn1c(-c2cccn(Cc3ccccc3)c2=O)n[nH]c1=S | -3% | -16%
CCc1ccc(NC(=O)CC2C(=O)N(c3cccc(C)c3)C(=O)N2C2CC2)cc1 (stereo not given) | -10% | -6%
CCN1C(=O)[C@H]2[C@@H](c3ccc(OC)cc3)N3C(=O)CN(CCOC)C(=O)[C@@]3(Cc3ccccc3)[C@H]2C1=O | i | 1%
O=C(NN1C(=O)C2C3C=CC(C3)C2C1=O)c1ccccc1 (stereo not given) | i | -2%

An excerpt from above in order of molar mass, lowest first.
SMILES | Vaccinia mCherry | VACV Venus inh
CCc1ccc(NC(=O)CC2C(=O)N(c3cccc(C)c3)C(=O)N2C2CC2)cc1 (stereo not given) | -10% | -6%
COc1cc(OC)cc(-c2nnc(SCC(=O)Nc3cccc(C(=O)O)c3)s2)c1 | -4% | -3%
O=C(Nc1ccccc1Br)C1CCCN(S(=O)(=O)c2cccc3nsnc23)C1 (stereo not given) | -21% | -7%

Going on with the list.
SMILES | Vaccinia mCherry | VACV Venus inh
Cc1ccc(SCc2[nH]nc3c2C(c2cccnc2)C(C#N)=C(N)O3)cc1 (stereo not given) | -4% | -18%
COc1ccc(NC(=O)C2CCN(C(=O)c3ccco3)CC2)c(OC)c1 | 31%[activator] | -9%
O=C(COC(=O)c1ccccc1O)NNC(=O)c1ccc(Br)cc1 | -12% | 0%
COc1cc(=O)n2c(c1C(=O)NC(C)c1ccco1)CCN(Cc1ccc3nsnc3c1)CC2 (stereo not given) | -10% | -4%
COc1ccc(-c2csc(C(C)(O)c3ccncc3)n2)cc1OC (stereo not given) | i | -4%
COc1cccc(/C=C/C(=O)OCC(=O)NC(=O)NC2CCCCC2)c1 | -14% | -1%
CCC(C)Cn1cnc2c(SCc3ccccc3F)nc(N)nc21 (stereo not given) | i | -19%
CCOc1ccc(N2C(=O)CS/C2=C(\C(Cl)=C(Cl)Cl)[N+](=O)[O-])cc1 | -6% | 4%
O=C(CCc1ccc(O)cc1)NNC(=S)NCCc1ccccc1 | -5% | -9%
CC(=O)c1cccc(NC(=O)CCS(=O)(=O)c2ccc3c(c2)n(C)c(=O)c(=O)n3C)c1 | 0% | -6%
O=C(Cc1ccc(S(=O)(=O)N2CCOCC2)s1)Nc1ccc2c(c1)CCC2 | -30% | -16%
